Assay outcomes deposited in PubChem BioAssay by National Center for Advancing Translational Sciences (NCATS).
2A firefly: FMDV 2A StopGo reporter, firefly signal | HEK cells with a luciferase reporter of 2A StopGo recoding | Potency, µM (highest dose often 57.5 µM), without a hit: at the top dose signal change, negative = less light | 0.23% of 120,000 active; active = well fitted falling curve with a large enough effect; inconclusive = small, poorly fitted or top-dose-only effect; inactive = no such curve, though single readings can be large or run the other way; note: nearly all actives have a fitted effect of over 60% in size; overnight with compound
StopGo RLuc: FMDV 2A StopGo reporter, Renilla signal; 0.32% of 120,000 active; HEK cells with a luciferase reporter of 2A StopGo recoding; AID 1745857; Potency, µM (titrated, usually from 57.5 µM), for the others: at the top dose signal change, negative = less light; active means well fitted falling curve with a large enough effect; inconclusive means small, poorly fitted or top-dose-only effect; inactive means no such curve, though single readings can be large or run the other way; note: nearly all actives have a fitted effect of over 55% in size; overnight with compound
* marks the source's active call; other numbers are inactive results; ? = inconclusive; [ ] = remark or other dose. % is set by controls: 0 for no effect and ±100 for the full control effect; potency is the fitted concentration of half-maximal effect. Outcome played no part in choosing rows; about 0.53% have a hit in one of these screens.

SMILES	2A firefly	StopGo RLuc
CCCNc1c(NS(=O)(=O)c2ccc3c(c2)oc(=O)n3C)c(=O)oc2ccccc12	-0.3%	-0.2%
CCOc1ccc(OCC)c(NC(=O)C(NS(=O)(=O)c2cccs2)c2ccccc2)c1 (stereo not given)	0.8%	47.6%[activator]
COc1ccc(NC(=O)CCS(=O)(=O)c2ccc3c(c2)OCCO3)cc1OC(F)F	-14.6%	-14.2%
Cc1ccc(NC(=O)CSc2nnc(-c3cc4occc4n3C)n2-c2ccccc2C)c(C)c1	-12.3%	-9.0%
NC(N)=N/N=C/c1ccc([N+](=O)[O-])cc1	40.3%[activator]	?
Cn1c(C(=O)N2CCC(C(=O)N3CCN(c4ccccc4)CC3)CC2)cc2sccc21	12.4%	-0.9%
C=CCNc1nc(-c2ccc3c(c2)C(C)C(=O)N3)cs1 (stereo not given)	299.4%[activator]	113.0%[activator]
Cc1cccc(N2CCN(C(=O)C3CCN(S(=O)(=O)Cc4cccc(Cl)c4)CC3)CC2)c1C	2.2%	3.2%
COc1ccc(N2CCN(C(=O)C3CCN(S(=O)(=O)c4cccs4)CC3)CC2)cc1	-19.9%	-11.8%
O=C(O)CCCCCCNS(=O)(=O)Cc1ccccc1	27.7%	3.1%
COc1ccc2cc(C(=O)OC(C)C(N)=O)c(C)nc2c1 (stereo not given)	19.3%	-1.8%
O=S(=O)(c1ccc(F)cc1)N(Cc1nc(-c2ccccc2)no1)C1CCCCC1	11.9%	40.4%[activator]
Cc1ccc(C2CCN(C(=O)Nc3ccc(Cl)cc3)C2)cc1 (stereo not given)	68.2%[activator]	0.9%
O=C(COC(=O)c1ccco1)Nc1ccc(Cl)c(C(F)(F)F)c1	24.9%	8.8%
Cc1nc2ccc(C(=O)N3CCOCC3)cc2nc1C	13.3%	-5.2%
O=C(OCc1ccc(F)cc1)C(c1ccccc1)N1CCC(O)CC1 (stereo not given)	9.2%	12.6%
COc1ccccc1NC(=O)C1=C(C)Nc2nc(SC)nn2C1c1ccccc1OC (stereo not given)	11.1%	31.3%[activator]
CC(=O)c1ccc(SCC(=O)N(C2CCCC2)C2CCCC2)c(F)c1	-7.3%	27.4%
Cc1cccc2c1-c1sc(C(=O)NCc3ccc(Cl)cc3)cc1CO2	-1.3%	-4.8%
Cc1ccc(-n2cccc2)cc1N	34.1%[activator]	-2.7%
CCc1ccc2oc(C(=O)Oc3ccc(C#N)cc3)c(C)c2c1	3.3%	3.3%
CC(C(=O)NCc1ccco1)n1cnc2c1c(=O)n(C)c(=O)n2C (stereo not given)	-11.8%	-19.2%
O=C(O)CCCC(=O)OCCCc1ccccc1	11.9%	-9.4%
COc1cc(/C=C/C(=O)C2C(=O)C=C(C)OC2=O)cc(Cl)c1OC(F)F (stereo not given)	-11.1%	0.5%
CNC(=O)NC(=O)CN(C)Cc1cccc(C(F)(F)F)c1	-7.3%	-10.1%
COc1ccc(-c2nc3cc(NC(=O)CSc4ccc(C)cc4)ccc3o2)cc1	158.9%[activator]	26.5%
O=C(COc1ccccc1F)Nc1ccc(C(=O)OCc2cc(=O)n3nc(C4CC4)sc3n2)cc1	-7.9%	-8.7%
CC1CCCN(C(=O)c2cc3c(Cl)nc4ccccc4c3s2)C1 (stereo not given)	54.3%[activator]	34.2%[activator]
Cc1ccc(OCC(=O)Nc2ccc(Br)cc2C(=O)O)cc1C	30.7%[activator]	-0.4%
O=C(Nc1ccccn1)C1CCN(c2nc3ccccc3o2)CC1	26.0%	-9.5%
Cc1ccc(/C=N/Nc2ccc(S(=O)(=O)Nc3ccc(Cl)cc3)cc2[N+](=O)[O-])cc1	16.1%	115.9%[activator]
CC(Sc1nnc(Nc2ccccc2F)s1)C(=O)N1CCc2ccccc21 (stereo not given)	78.5%[activator]	19.2%
CC(C)Nc1nc(C(=O)Nc2ccc(O)cc2)cs1	137.9%[activator]	-0.8%
CCc1cccc2cc(C(=O)O)[nH]c12	10.3%	-1.6%
Cc1ccccc1Nc1c(-c2cccc(O)c2)nc2ccc(Br)cn12	-18.2%	-10.0%
NC(N)=N/N=C/C(Cl)=C/c1ccccc1	0.0%	-15.2%
CC(C(=O)N(C)C1CCCCC1)N(C)CC(=O)Nc1ccc(Cl)cc1 (stereo not given)	?	?
COc1cccc(NC(=O)Cn2c(=O)n(-c3ccccc3)c(=O)c3c4c(sc32)CCCC4)c1	-9.4%	1.2%
CCC(=O)C(CCN(C)C)(c1ccccc1)c1ccccc1	-8.1%[11.5 µM]	-19.9%
Cn1c(C(=O)NCCNC(=O)c2cccc(F)c2)cc2ccccc21	0.0%	22.2%
COc1ccccc1C(=O)NC1CC(=O)N(c2cccc(F)c2)C1 (stereo not given)	12.7%	8.3%
CC(=O)c1ccc(N2CCN(C(=O)c3nn(Cc4ccccc4)c(=O)c4ccccc34)CC2)c(F)c1	17.9%	70.9%[activator]
COc1ccc2c(c1)N(C(=O)Nc1ccc(Cl)cc1)C(C)(C)C=C2C	59.9%[activator]	-10.9%
CC(C)c1ccc(Nc2nc(N)c(C#N)c(CC#N)c2C#N)cc1	17.7%	2.6%
Cc1c(Cl)cccc1NS(=O)(=O)c1ccc(-c2cnc(C3CC3)o2)cc1	?	4.1%
CCNC(=O)CSc1cc(C)c2ccccc2n1	0.0%	26.4%
COc1ccc(-c2oc3ncn4nc(-c5ccccc5O)nc4c3c2-c2ccc(OC)cc2)cc1	-3.6%	-4.7%
CCN(CC)S(=O)(=O)c1ccc2oc(SC(C(=O)NC3CC3)c3ccccc3)nc2c1 (stereo not given)	5.1%	5.8%

Whole records as entered above. Screens in order: 2A firefly	StopGo RLuc
`CCC(=O)C(CCN(C)C)(c1ccccc1)c1ccccc1` across the screens: -8.1%[11.5 µM]	-19.9%
`CCNC(=O)CSc1cc(C)c2ccccc2n1` across the screens: 0.0%	26.4%
`CC(C)c1ccc(Nc2nc(N)c(C#N)c(CC#N)c2C#N)cc1` across the screens: 17.7%	2.6%
`CC(C(=O)N(C)C1CCCCC1)N(C)CC(=O)Nc1ccc(Cl)cc1` (stereo not given) across the screens: ?	?
`CCN(CC)S(=O)(=O)c1ccc2oc(SC(C(=O)NC3CC3)c3ccccc3)nc2c1` (stereo not given) across the screens: 5.1%	5.8%

Next section:
SMILES	2A firefly	StopGo RLuc
Cc1ccc(S(=O)(=O)N2CCCc3cc(NS(=O)(=O)c4ccc(F)cc4)ccc32)cc1	?	98.7%[activator]
Cc1ccc2c(c1)C(O)(CC(=O)c1ccccc1F)C(=O)N2 (stereo not given)	0.0%	17.5%
CCOC(=O)N1CCC(NC(=O)c2cnn3c(C)c(Cc4cc(C)ccc4C)c(C)nc23)CC1	1.9%	-5.4%
CCOc1ccc(Oc2nc(NC)nc(N3CCOCC3)n2)nn1	6.8%	16.3%
Cc1ccc(N2CCN(C(=O)C3CCC(CNS(=O)(=O)c4ccc(Br)s4)CC3)CC2C)cc1 (stereo not given)	?	?
COC(=O)c1scc(-c2ccc(C)cc2)c1S(=O)(=O)N1CCN(c2ccc(C)cc2C)CC1	-12.0%	-10.4%
Cc1ccc2nc(CN3CCN(C(=O)Nc4ccc(F)cc4)CC3)oc2c1	-13.1%	-28.1%
COc1ccccc1N1CCN(CCCNC(=O)c2cnn(-c3ccccc3Cl)c2C2CCN(C(=O)OC(C)(C)C)CC2)CC1	-14.3%	-13.7%
CCOc1ccc(S(=O)(=O)NCCc2ccccc2)cc1-c1nc(C)no1	43.2%[activator]	152.1%[activator]
COc1ccc(OCC(=O)Nc2ccc3c(c2)N(C)C(=O)c2ccccc2S3)cc1	14.5%	38.6%[activator]
CC1CCN(S(=O)(=O)c2ccc3c(ccn3CCC(=O)NCc3ccccc3F)c2)CC1	-10.1%	0.0%
CCCC(=O)n1nc(-c2cccnc2)nc1NCc1ccccc1	1.8%	-7.4%
COC(=O)c1ccc(COC(=O)C2COc3ccccc3O2)o1 (stereo not given)	14.7%	-3.8%[1.06 µM]
CC(C)c1ccc(NC(=O)c2cc3c(=O)[nH]c4ccccc4c3n2C)cc1	5.2%	-5.5%
CCCOc1cccc(C(=O)Nc2ccc(-c3nc4ccccc4o3)cc2)c1	-0.5%	-1.8%
O=C(COc1ccc2ccc(=O)oc2c1)Nc1ccc(N2CCOCC2)cc1	7.1%	20.6%
O=c1cc(O)c2sc3nc(C45CC6CC(CC(C6)C4)C5)cc(C(F)(F)F)c3c2[nH]1	15.1%	-8.2%
CCSC1=C(C#N)C(c2ccc(C)cc2)C2=C(CCCC2=O)N1 (stereo not given)	-3.7%	27.8%
Cc1cccc(C)c1Nc1nc2ccccc2nc1NS(=O)(=O)c1ccccc1	2.6%	-0.8%
O=C(NCCc1ccc(Cl)cc1)c1ccc2c(c1)N(Cc1c(F)cccc1Cl)C(=O)CS2	6.8%	12.2%
Cc1ccccc1/C=C/C(=O)NC1CC1	169.6%[activator]	8.1%
Cc1cccc(C)c1OCC(O)Cn1c(C)cc(=O)n2ncnc12 (stereo not given)	-5.0%	0.7%
Cc1ccc(NC(=O)C2CCN(c3nc(-c4ccc(C(C)C)cc4)no3)CC2)c(Cl)c1	?	4.8%
O=C(c1ccc(Cl)cc1)N(Cc1ccco1)c1ccc(O)cc1	?	?
COc1ccc(Cn2c(CCC(=O)Nc3cc(C)cc(C)c3)nc3cccnc32)cc1	-16.8%	2.9%
Cc1oc(-c2nc(C#N)c(NC(C)C)o2)cc1S(=O)(=O)N1CCOCC1	0.2%	-8.2%
CO/N=C/c1ccc(OCc2ccc(C(=O)OC)cc2)cc1	75.4%[activator]	5.1%
COc1ccc(C2=C(O)C(=O)N(Cc3ccco3)C2c2ccc(C(C)C)cc2)cc1 (stereo not given)	-6.7%	-0.3%
COc1ccc(C(=O)NC2CCCCC2)cc1	0.0%	6.5%
CCN(CC)CCCn1c(C)c(C)c2c1ncn1nc(-c3cccs3)nc21	44.5%[activator]	-10.7%
CCOC(=O)c1noc2nc(C)n(CC(=O)Nc3ccc(OC)c(Cl)c3)c(=O)c12	-24.4%	-11.2%
Cc1oc(-c2cccs2)nc1CC(=O)NC(C)CN1CCOCC1 (stereo not given)	-8.4%	6.8%
O=C(CSc1nnc(-c2ccccc2F)n1C1CC1)c1cc2ccccc2o1	61.3%[activator]	23.9%
CC(=O)Nc1ccc(NC(=O)C2CCCN2S(=O)(=O)c2ccc3c(c2)CCCC(=O)N3)cc1 (stereo not given)	-22.0%	-3.5%
CC(C)(C)c1ccc(C2CC2C(=O)NN)cc1 (stereo not given)	6.2%	4.9%
CCOc1ccccc1NC(=O)c1ccc2c(c1)CCN2S(C)(=O)=O	49.8%[activator]	-7.9%
CN(CC(=O)N(C1CCCCC1)C1CCS(=O)(=O)C1)c1ccc2ccccc2c1 (stereo not given)	0.7%	0.5%
O=C1OC(C2CC2)c2cc3c(cc21)OCCO3 (stereo not given)	?	?
COc1ccc(CCn2c(Br)nc3c2c(=O)n(C)c(=O)n3C)cc1	-7.8%	-9.1%
COc1ccc2cc(C(=O)NCc3ccc4c(c3)CCN4C(=O)c3ccccc3)[nH]c2c1	-20.6%	-12.9%
C(#CC(c1ccccc1)(c1ccccc1)C1CCCCC1)CN1CCOCC1	?	?
CCNC(=O)COC(=O)c1cc(Cl)cc(Cl)c1	3.0%	1.9%
CC(=O)OCC(=O)[C@@]1(O)[C@H](OC(C)=O)C[C@H]2[C@@H]3CCC4=CC(=O)C=C[C@]4(C)[C@@]3(F)[C@@H](O)C[C@@]21C	1.7%	15.1%
CCS(=O)(=O)N1CCc2cc(C(=O)Nc3cc(Cl)ccc3C)ccc21	22.9%	3.9%
CCc1cccc(C)c1NS(=O)(=O)c1c(C)nc2sccn2c1=O	-28.9%	9.1%
O=C(Nc1cccc(Cl)c1F)c1nn(Cc2ccccc2)c(=O)c2ccccc12	2.0%	3.1%
COC(=O)C(NC(=O)c1ccccc1OC)(Nc1nc(C2CC2)cs1)C(F)(F)F (stereo not given)	-2.2%	105.6%[activator]
CCOc1ccccc1CNC(=O)C(CC)n1nc(CC)n2c(cc3oc(C)cc32)c1=O (stereo not given)	-27.9%	46.1%[activator]
O=C(CCCc1nc2ccccc2s1)NCCc1cccc(F)c1	14.0%	0.0%
CCOC(=O)c1sc(CC(=O)Nc2ccccc2C)nc1C	10.8%	7.0%
COc1ccc(NC(=O)c2cc(Br)c(O)c(OC)c2)cc1NC(C)=O	23.4%	12.9%
CNC(=O)c1cc2c(n(-c3ccc(C)cc3)c1=O)CC(C)(C)CC2=O	4.6%	-7.6%
CCN1CCN(C(=O)c2cc(-c3ccco3)nc3ccccc23)CC1	-0.5%	-8.8%
CC(=O)Nc1cccc(C(=O)NCc2ccc3c(c2)CCN3C(=O)c2ccccc2)c1	-14.0%	-22.0%
CCCOc1cc(OCCC)cc(C(=O)Nc2cccc(-c3nc4ncccc4o3)c2)c1	2.1%	4.7%

4 of the compounds above, with two lines to a compound:
Values run as follows: 2A firefly	StopGo RLuc
COc1ccc(NC(=O)c2cc(Br)c(O)c(OC)c2)cc1NC(C)=O
→ 23.4%	12.9%
CNC(=O)c1cc2c(n(-c3ccc(C)cc3)c1=O)CC(C)(C)CC2=O
→ 4.6%	-7.6%
CCN1CCN(C(=O)c2cc(-c3ccco3)nc3ccccc23)CC1
→ -0.5%	-8.8%
CC(=O)Nc1cccc(C(=O)NCc2ccc3c(c2)CCN3C(=O)c2ccccc2)c1
→ -14.0%	-22.0%

Reformatted comma-delimited: 2 of the compounds above
molecule,2A firefly,StopGo RLuc
CCc1ccc2oc(C(=O)Oc3ccc(C#N)cc3)c(C)c2c1,3.3%,3.3%
CC(C(=O)NCc1ccco1)n1cnc2c1c(=O)n(C)c(=O)n2C (stereo not given),-11.8%,-19.2%
